Mtb H37Rv = M. tuberculosis H37Rv growth inhibitors, H37Rv strain (AID 1626) | inhibition, % at 10 µM, or IC50 in µM where a hit was titrated | actives 0.95% (n = 220,000) | M. tuberculosis H37Rv growth inhibition; higher % means a stronger effect;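 active = confirmed in a dose series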;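 also: bacteria incubated seven days before Alamar blue readout; 0% = bacteria only wells and 100% = bacteria with antibiotic wells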
Arbovirus inh = arbovirus infection inhibition | arbovirus infection cell-based antiviral screen | actives 0.37% (n = 200,000) | inhibition, % at 10 µM;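 active = inhibition from about 30%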;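 also: bluetongue infection of BSR cells; cell survival read as ATP light after 72 h; 0% = infected wells without compound and 100% = uninfected wells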
RecA splice inh = inhibitors of M. tuberculosis RecA intein splicing | P9WHJ3 | inhibition, %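 (about 9 µM by stock and volumes)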 | AID 2221 | actives 0.75% (n = 290,000) | cell-free RecA intein splicing, fluorescence; in the data active = inhibition above about 30%;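 also: 0% = vehicle wells and 100% = reference inhibitor control wells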
Target sequence (P9WHJ3 whole entry, looked up, canonical isoform): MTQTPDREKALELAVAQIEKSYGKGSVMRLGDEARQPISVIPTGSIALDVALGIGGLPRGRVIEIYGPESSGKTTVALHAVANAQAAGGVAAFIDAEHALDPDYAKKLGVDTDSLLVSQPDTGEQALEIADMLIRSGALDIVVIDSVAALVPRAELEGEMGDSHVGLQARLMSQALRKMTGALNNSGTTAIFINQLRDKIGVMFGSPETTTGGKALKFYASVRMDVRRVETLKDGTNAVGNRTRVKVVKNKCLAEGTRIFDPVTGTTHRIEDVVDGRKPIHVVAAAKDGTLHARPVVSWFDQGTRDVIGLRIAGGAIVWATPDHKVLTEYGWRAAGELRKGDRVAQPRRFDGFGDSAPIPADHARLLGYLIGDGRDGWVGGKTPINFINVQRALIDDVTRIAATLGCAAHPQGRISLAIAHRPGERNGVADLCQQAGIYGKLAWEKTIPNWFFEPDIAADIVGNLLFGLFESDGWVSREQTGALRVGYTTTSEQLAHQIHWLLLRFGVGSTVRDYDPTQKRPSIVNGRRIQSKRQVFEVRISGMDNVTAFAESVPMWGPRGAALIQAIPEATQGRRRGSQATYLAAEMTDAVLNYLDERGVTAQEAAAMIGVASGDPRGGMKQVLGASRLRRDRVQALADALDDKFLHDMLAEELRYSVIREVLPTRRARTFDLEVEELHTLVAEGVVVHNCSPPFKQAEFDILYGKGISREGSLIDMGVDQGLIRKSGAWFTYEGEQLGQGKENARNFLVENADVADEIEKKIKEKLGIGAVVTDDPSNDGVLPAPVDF
Mtb bLac sens = beta-lactam sensitization of Mtb H37Rv | M. tuberculosis H37Rv growth with meropenem, percent inhibition; hits of this screen are not shown here | inhibition, % at 25 µM | actives 0.27% (n = 330,000) | AID 434955;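 active = about 74% or more and at least 40 points above the plate without the antibiotic, then above 30% in a dose series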;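 also: growth measured after seven days incubation then overnight dye step; 0% = bacteria only wells and 100% = bacteria with antibiotic; twin plates without the antibiotic show which effects depend on it; some results filed as inactive read as strong as hits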
YopH inh = YopH (Yersinia) phosphatase inhibition | inhibition, %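 (about 10 µM by stock and volumes)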 | actives 0.16% (n = 140,000) | fluorescence Ex485/Em525 | AID 898;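 active = inhibition of 50% or more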;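 also: controls were vehicle for no effect and minimum signal wells for full effect; inactives centre near -20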
Arbovirus inh repeat = second read-out of Arbovirus inh, no call of its own (marks repeat the call); inhibition, %; measured here: 10K subset replicate screen; many hits read low in the repeat;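 first of two repeat runs on a subset; 0% = infected and 100% = uninfected wells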
Active calls of the source: *; x = not tested or not shown. Only part of the results is shown (hit frequency here may not be typical).

SMILES | Mtb H37Rv | Arbovirus inh | RecA splice inh | Mtb bLac sens | YopH inh | others
CCC(=O)Nc1ccc(C(=O)Nc2cc(C)on2)cc1 | 7.8% | 3.5 | -0.8 | -1.6 | -4.5
C=CCN(c1ccccc1)S(=O)(=O)c1ccc(Cl)c(C(=O)OCC(=O)N(C)C2CCS(=O)(=O)C2)c1 (stereo not given) | 0.4% | 2.8 | 1.7 | 7.1 | x
COc1ccc(NP(=O)(Nc2ccc(OC)cc2)Oc2ccccc2)cc1 | 14.1% | -7.3 | 4.3 | -1.3 | -14.6
CCOC(=O)N1CCN(C(=O)CN(Cc2ccc(Cl)cc2)S(=O)(=O)c2ccccc2)CC1 | -4.2% | 7.4 | -0.6 | -1.7 | -23.6
Cc1cc2c(cc1S(=O)(=O)Nc1cccc(C)c1C)OCC(=O)N2 | x | x | -3.9 | 5.0 | x
Cc1nc2c3c4c(sc3n3c(SCC(=O)NCc5ccco5)nnc3n2n1)COC(C)(C)C4 | -3.1% | 8.0 | x | x | -31.5 | Arbovirus inh repeat=0.2
Cc1ccccc1OCC(=O)OCn1nnc2ccccc2c1=O | -3.0% | x | -1.4 | 4.0 | x
Cc1ccc(NS(=O)(=O)c2ccc(-n3cccn3)cc2)cc1F | x | x | -1.5 | -0.7 | x
O=C(COc1ccccc1)Nc1nc2ccccc2[nH]1 | -2.3% | 3.8 | 1.8 | 12.9 | 27.7
Cc1ccc(SCC(=O)N(C)CC(=O)Nc2cccc(F)c2)cc1 | x | x | 0.4 | -16.6 | x
Cn1ncc(N=Cc2ccc([N+](=O)[O-])cc2)c1C(=O)Nc1ccccc1 | 4.0% | -0.2 | 1.1 | 7.8 | x
COc1ccc2c3c([nH]c2c1)C(C)N(CCC(=O)NN)CC3 (stereo not given) | x | x | -54.1 | -6.3 | x
CCCn1c(N)nc2ccccc21 | -0.2% | 14.0 | -0.9 | -3.4 | -14.4
Cc1nn(Cc2ccc(Cl)cc2Cl)c(C)c1NC(=O)C1C2CCC(O2)C1C(=O)O (stereo not given) | -7.8% | 8.2 | 0.4 | -6.6 | -15.2
CC(=O)c1cccc(NC(=O)c2ccc(NS(=O)(=O)c3c(C)noc3C)cc2)c1 | 0.4% | -1.1 | 1.1 | 14.7 | -46.5
Cc1ccccc1C(=O)NCC(=O)NCC1(N2CCOCC2)CCCCC1 | x | x | -1.4 | -9.8 | x
CCN(CC)CCNC(=O)C(Oc1ccccc1)Oc1ccccc1 | x | x | -1.8 | -3.9 | x
Cc1cc(NC(=O)c2ccno2)no1 | x | x | -1.5 | -5.3 | x
COc1ccc([N+](=O)[O-])cc1N(CC(=O)NC(C(C)C)C(C)C)S(C)(=O)=O | -0.5% | 4.4 | -2.9 | -8.8 | x
CSc1ccccc1NC(=O)c1ccccn1 | 4.9% | 1.2 | 0.6 | 11.8 | x
S=c1[nH]nc(-c2cc(-c3ccsc3)n[nH]2)n1-c1ccccc1 | -0.4% | x | 1.2 | -1.4 | x
COc1ccc(/C=C/C(=O)NC(=S)Nc2ccccc2)cc1OC | x | x | -0.7 | 2.0 | x
C#CCO[C@@H]1C[C@H](n2cnc3c(NC(=O)c4ccccc4)ncnc32)O[C@@H]1CO | -14.2% | x | 3.1 | -16.4 | x
Fc1ccc(CN2CCSCC2)cc1F | x | x | -1.1 | -2.9 | x
COC(=O)c1coc(-c2ccc(C)cc2)c1C(=O)OC | 7.7% | -0.4 | 1.5 | -6.8 | -9.7 | Arbovirus inh repeat=-4.4

Quoted at random: 2 entries already listed
SMILES | Mtb H37Rv | Arbovirus inh | RecA splice inh | Mtb bLac sens | YopH inh | others
Cc1ccccc1OCC(=O)OCn1nnc2ccccc2c1=O | -3.0% | x | -1.4 | 4.0 | x
Cc1cc(NC(=O)c2ccno2)no1 | x | x | -1.5 | -5.3 | x

Structures listed so far that have two or more sulfur atoms:
SMILES | Mtb H37Rv | Arbovirus inh | RecA splice inh | Mtb bLac sens | YopH inh | others
C=CCN(c1ccccc1)S(=O)(=O)c1ccc(Cl)c(C(=O)OCC(=O)N(C)C2CCS(=O)(=O)C2)c1 (stereo not given) | 0.4% | 2.8 | 1.7 | 7.1 | x
Cc1nc2c3c4c(sc3n3c(SCC(=O)NCc5ccco5)nnc3n2n1)COC(C)(C)C4 | -3.1% | 8.0 | x | x | -31.5 | Arbovirus inh repeat=0.2
S=c1[nH]nc(-c2cc(-c3ccsc3)n[nH]2)n1-c1ccccc1 | -0.4% | x | 1.2 | -1.4 | x

Further structures
SMILES | Mtb H37Rv | Arbovirus inh | RecA splice inh | Mtb bLac sens | YopH inh | others
Cc1c(CCC(C)C)c(-n2ccnc2C)n2c(nc3ccccc32)c1C#N | -11.4% | -1.5 | -48.3 | -3.4 | -9.0
CCOC(=O)C1=C(C)NC(=O)NC1c1ccc(OC(=O)c2ccco2)c(OC)c1 (stereo not given) | -7.2% | 6.3 | 6.2 | -3.5 | -29.8
CC(C)(C)C1CCC(=O)C(C2(O)C(=O)Nc3ccccc32)C1 (stereo not given) | -9.3% | -1.9 | 2.4 | 2.6 | 0.2
c1ccc(C(OCCN2CCNCC2)c2ccccc2)cc1 | -7.4% | -9.1 | 0.9 | -6.0 | -36.4
Cc1cc(NC(=O)CCC(=O)N(CC(=O)NCC2CCCO2)c2ccc(Cl)c(Cl)c2)no1 (stereo not given) | x | x | 1.1 | -2.3 | x
Cc1ccc(Cn2c(N3CCN(C)CC3)nc3c2c(=O)[nH]c(=O)n3C)cc1 | x | x | -6.6 | -8.3 | x
Cc1ccc(S(=O)(=O)N2CCCC2CNC(=O)C(=O)NCc2cccs2)cc1 (stereo not given) | x | x | -1.5 | -13.3 | x
O=C(C[n+]1cccc(Br)c1)c1ccc(-c2ccccc2)cc1 | x | x | 5.1 | 5.0 | x
Cc1cccc(C(=O)NCC(=O)NC(C)CCc2ccccc2)c1 (stereo not given) | x | x | 0.6 | -6.9 | x
COc1cccc(Nc2nc(NCCO)nc(N3CCCC3)n2)c1 | -9.6% | x | -0.7 | 14.2 | x
Cc1csc(NC(=O)Nc2ccccc2[N+](=O)[O-])n1 | 0.1% | -5.6 | 2.5 | -1.7 | x
COC(=NC1CCCCC1)C(O)c1c[nH]c2ccccc12 (stereo not given) | -8.2% | 1.8 | 2.7 | -1.5 | 5.7
Cc1ccccc1NC(=S)NNc1ncc(C(F)(F)F)cc1Cl | -4.7% | -7.8 | -3.8 | 9.9 | -9.4
CCn1nc(C(=O)OCC(=O)Nc2ncc(Cl)c(C)c2Cl)c2ccccc2c1=O | -2.4% | -1.6 | 1.8 | 3.4 | -6.6
Cc1ccc(C(C(=O)NC2CCCCC2)N(C(=O)c2csnn2)c2ccccc2F)o1 (stereo not given) | x | x | 0.2 | 4.7 | x
O=C(CSc1nc2ccccc2[nH]1)c1ccccc1F | x | x | 0.6 | 10.3 | x
Cc1cc(C)cc(NC(=O)NC2CCCCCCC2)c1 | x | x | -0.5 | 100.0 | x
Cc1[nH][nH]c(=O)c1C(c1ccc(-c2ccc(Cl)cc2)o1)c1c(C)[nH][nH]c1=O | 3.69µM* | 5.6 | -2.9 | 98.7 | -13.4
CCN(Cc1ccccc1)S(=O)(=O)c1ccc(S(=O)(=O)N(Cc2ccccn2)Cc2ccco2)cc1 | -6.0% | -9.6 | x | 0.1 | -35.7
CCOC(=O)Cn1nc(NC(=O)c2cc(OC)cc(OC)c2)cc1C | x | x | 0.1 | -2.7 | x
NC(=O)C1(c2ccccc2)CCCN1C(=O)c1ccccc1Br (stereo not given) | x | 9.4 | -1.4 | -2.7 | x
COc1ccc(NS(=O)(=O)c2cc(-c3nnnn3C)ccc2OC)cc1 | -2.9% | 6.3 | -2.0 | -19.5 | -36.8
CC(=O)c1sc(N/N=C/c2cccc([N+](=O)[O-])c2)nc1C | x | x | -1.9 | 1.0 | x
COc1ccc(-n2c(C)cc(C(=O)CN3C(=O)c4ccccc4C3=O)c2C)cc1 | 5.0% | -7.8 | -1.3 | 4.8 | -32.9
O=C(c1ccncc1)N(Cc1ccco1)Cc1cc2ccccc2[nH]c1=O | -3.2% | 4.5 | 0.0 | 4.5 | -40.6

A draw from above in order of SMILES length, largest number first:
SMILES | Mtb H37Rv | Arbovirus inh | RecA splice inh | Mtb bLac sens | YopH inh | others
O=C(c1ccncc1)N(Cc1ccco1)Cc1cc2ccccc2[nH]c1=O | -3.2% | 4.5 | 0.0 | 4.5 | -40.6
NC(=O)C1(c2ccccc2)CCCN1C(=O)c1ccccc1Br (stereo not given) | x | 9.4 | -1.4 | -2.7 | x
COC(=NC1CCCCC1)C(O)c1c[nH]c2ccccc12 (stereo not given) | -8.2% | 1.8 | 2.7 | -1.5 | 5.7

The main list resumes, starting 2 compounds before the break.
SMILES | Mtb H37Rv | Arbovirus inh | RecA splice inh | Mtb bLac sens | YopH inh | others
COc1ccc(-n2c(C)cc(C(=O)CN3C(=O)c4ccccc4C3=O)c2C)cc1 | 5.0% | -7.8 | -1.3 | 4.8 | -32.9
O=C(c1ccncc1)N(Cc1ccco1)Cc1cc2ccccc2[nH]c1=O | -3.2% | 4.5 | 0.0 | 4.5 | -40.6
CCN1C(=O)C(O)(CC(=O)c2cc(C)ccc2C)c2ccccc21 (stereo not given) | -2.3% | -3.2 | -1.0 | 1.8 | -1.4
COc1ccc(C(=O)NCC(=O)N2CCN(c3ccc(F)cc3)CC2)cc1 | x | x | 0.1 | 9.0 | x
Cn1ccnc1Sc1ccccc1[N+](=O)[O-] | 7.5% | 4.6 | -0.8 | -4.1 | x
COc1ccc(/C=C2\SC(=S)N(NS(=O)(=O)c3ccc(C)cc3)C2=O)c(OC)c1 | x | x | -1.8 | -8.5 | x
Cc1cccc(NC(=S)NC2CC3CCCC(C2)N3Cc2ccco2)c1 (stereo not given) | 6.7% | 0.7 | 1.2 | -0.8 | x
CCNC(=S)N1CCN(c2ccccc2OCC)CC1 | 1.4% | 4.5 | -0.9 | 1.8 | -24.7
C/C=C\C(=O)Nc1cccc(C2=NOC3(C2)C[C@@H](C(N)=O)N(C(=O)c2ccc(OC)cc2)C3)c1 (stereo not given in full) | -2.4% | x | -2.4 | -15.4 | x
COc1ccc(N(CC(=O)Nc2nccs2)S(=O)(=O)c2c(C)[nH]c(=O)[nH]c2=O)cc1 | 2.2% | 11.2 | 0.2 | -2.8 | x
COc1cc(/C=C2/SC(=S)N(CC(=O)O)C2=O)ccc1OC(=O)c1cccs1 | 0.8% | x | 18.6 | -2.6 | x
Cc1ccc(NC(=O)Cn2c(CCC(=O)O)ccc2-c2ccc(Cl)cc2)cc1 | x | x | 3.7 | 6.9 | x
COc1ccc(C2CC(=O)N(C)c3ccccc3S2)cc1 (stereo not given) | -3.2% | -10.0 | 1.2 | 3.2 | x
CN1CCSc2ccc(C(=O)Nc3ccc(Cl)cc3)cc21 | 4.3% | x | -2.3 | 1.1 | x
Cc1ccc(-c2nnn(CC(=O)N(c3ccccc3)C(C(=O)NCC3CCCO3)c3cccs3)n2)o1 (stereo not given) | -2.5% | -7.9 | 3.4 | 6.3 | x
Cc1ccc(NC(=O)Cn2cccc2)cc1C | 23.6% | 4.7 | -0.8 | 13.2 | -53.3
Cc1ccc(NC(=O)c2ccc3c(SCC(=O)O)c4c(nc3c2)CCCC4)c(Br)c1 | x | x | 11.8 | -3.1 | x
CCc1cc(=O)oc2c3c(cc(OCC(=O)NCCCOC)c12)OC(C)(C)CC3 | x | x | 0.6 | -3.8 | x
Oc1ccc(Nc2ncnc3ccccc23)cc1 | x | x | -1.7 | -2.6 | x
CC(=O)N1c2ccc(S(=O)(=O)NCCc3ccc(Cl)cc3)cc2CC1C (stereo not given) | x | x | 0.9 | -7.2 | x
CN1/C(=C\C(=S)NC(=O)c2ccc([N+](=O)[O-])cc2)C(C)(C)c2ccccc21 | 23.9% | -7.4 | 3.0 | 2.7 | -19.1
O=C(Nc1cccc2ccccc12)N1CC=CCC1 | 13.7% | 0.7 | -1.1 | 43.4 | -13.1
O=C(c1ccc(S(=O)(=O)NCc2ccco2)cc1)N1CCN(Cc2ccc3c(c2)OCO3)CC1 | -2.1% | -12.5 | -0.9 | -7.8 | x
CCOC(=O)c1c(NC(=O)COC(=O)C2CC2C)sc(C)c1C (stereo not given) | -5.3% | 0.9 | 10.7 | -1.2 | x

Screens: PubChem BioAssay, several laboratories
